Bioassay records (PubChem)
INS promoter inh: TRM-6 insulin promoter activity inhibition; AID 1273; TRM-6 cells (human fetal islet line), insulin promoter-eGFP reporter, imaging; reporter expression induced with tamoxifen; actives 0.9% (n = 130,000); inhibition, % at 2 µM;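 active = inhibition above the mean plus 3 SD, with well images judged a real hit on visual review, cut at about 60% in these data, passing the limit was not always enough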
RGS16-Gao: RGS16-Galphao interaction regulator (human). bead-based flow cytometry RGS16-Galphao binding, fluorescence; actives lie on both sides. binding response (% of control), % at 10 µM. actives 0.38% (n = 220,000). AID 1441;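 active = below 25% or above 175%, edge rows of some plates excepted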;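 also: Galphao activated by GDP with aluminum fluoride before binding; 100% = wells without compound and 0% = beads without RGS; some results beyond the cut were filed as inactive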
GALR2 ag: GALR2 (human) receptor agonism. actives 0.48% (n = 140,000). GALR2-expressing cells, agonist activation read-out. activation, %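 (tested at 5 µM)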;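 active = above mean plus 3 SD of all compounds, about 5% in these data, not always enough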;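 also: 0% = vehicle buffer wells and 100% = reference agonist at full effect; tested in CHO reporter cells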
HSV augment: increases HSV replication in cells | HSV replication augmentation in cells, fold increase | maximum fold increase | actives 0.005% (n = 220,000) | AID 1956;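 active = peak rise of 1.5-fold or more in the series; tested in PC3 cells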;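 also: first round at 10 µM; read as green reporter fluorescence; hits show the peak of a series up to 25 µM; 1 = signal of infected wells without compound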
PKD1 kinase inh: inhibitors of human PKD1 kinase | Q15139 | PKD1 kinase fluorescence polarization assay | inhibition, %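 (about 10 µM by stock and volumes)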 | actives 0.056% (n = 200,000);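 active = inhibition of 50% or more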;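 also: controls were vehicle for no effect and a reference inhibitor for full effect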
Target sequence (Q15139 whole entry, looked up): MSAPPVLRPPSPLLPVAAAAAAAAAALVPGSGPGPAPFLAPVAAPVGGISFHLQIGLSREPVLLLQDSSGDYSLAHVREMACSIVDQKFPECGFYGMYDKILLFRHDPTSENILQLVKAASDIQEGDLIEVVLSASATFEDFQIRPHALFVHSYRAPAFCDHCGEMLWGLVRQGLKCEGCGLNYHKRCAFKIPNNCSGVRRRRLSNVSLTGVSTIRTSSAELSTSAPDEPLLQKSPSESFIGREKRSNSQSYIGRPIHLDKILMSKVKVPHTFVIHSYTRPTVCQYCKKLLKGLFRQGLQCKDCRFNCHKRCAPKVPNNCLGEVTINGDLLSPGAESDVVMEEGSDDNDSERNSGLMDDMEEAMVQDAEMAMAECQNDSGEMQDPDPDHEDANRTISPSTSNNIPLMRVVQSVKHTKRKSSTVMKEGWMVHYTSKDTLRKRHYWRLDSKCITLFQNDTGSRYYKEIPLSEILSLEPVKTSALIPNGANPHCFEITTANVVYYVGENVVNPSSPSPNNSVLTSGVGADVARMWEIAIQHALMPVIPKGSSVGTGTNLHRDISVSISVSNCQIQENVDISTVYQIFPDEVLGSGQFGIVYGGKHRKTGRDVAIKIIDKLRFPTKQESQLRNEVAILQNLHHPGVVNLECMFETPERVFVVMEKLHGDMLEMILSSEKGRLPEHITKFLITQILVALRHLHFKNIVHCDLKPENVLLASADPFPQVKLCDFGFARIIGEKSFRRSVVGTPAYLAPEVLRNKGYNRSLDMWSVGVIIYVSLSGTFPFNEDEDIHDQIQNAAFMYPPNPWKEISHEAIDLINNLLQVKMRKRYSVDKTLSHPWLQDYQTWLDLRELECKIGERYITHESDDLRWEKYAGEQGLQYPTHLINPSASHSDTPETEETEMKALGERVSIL
INS promoter inh cell count: further read-out of INS promoter inh, marked with its call; normalized cell count, %; measured here: cell count, toxicity; reference of the scale not given here;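 cells exposed to compound for 48 h; stained nuclei by imaging scaled within each plate; lower means fewer cells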
HSV augment primary fold: also measured in HSV augment; calls as there; fold increase; compound at 10 µM; measured here: primary screen fold increase 10 uM; tested in PC3 cells;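 GFP signal in the first replicate; 1 = infected wells without compound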
* hit, by the source's call; i = inactive; x = not tested or not shown; [ ] = dose if it differs, or a comment.

SMILES	INS promoter inh	INS promoter inh cell count	RGS16-Gao	GALR2 ag	HSV augment	HSV augment primary fold	PKD1 kinase inh
O=C(O)/C=C/S(=O)(=O)c1ccc2ccccc2c1	x	x	94	x	i	0.92	x
O=C(NC1CCCCC1)C(c1ccco1)N(CCc1ccccc1)C(=O)C(F)(F)F (stereo unspecified)	66	128	102	-0.9	i	1.1	0
COc1ccc(CCNC(=O)C2CCCCC2C(=O)O)cc1OC (stereo unspecified)	46	102	102	-1.3	i	0.96	3
COc1cc(-n2c(=O)c3ccccc3n(Cc3ccccc3)c2=O)cc(OC)c1OC	29	136	105	-1.3	i	0.94	-11
CCCCn1c(SCC(=O)N(C)C)nnc1-c1ccncc1	x	x	103	x	i	0.97	0
CCCCN1C(=O)C(=O)NC[C@@H]1C(C)O (stereo partly specified)	x	x	101	x	i	0.5	x
Cc1ccc(-n2ncc3c(=O)n(CC#N)cnc32)cc1	26	133	100	-2.4	i	0.76	4
COc1cc(NC(=S)NC(=O)c2cccs2)ccc1NC(=O)C(C)C	x	x	102	x	i	0.96	6
Cc1cc(Cl)cc(Cl)c1CNc1c([N+](=O)[O-])c(=O)oc2ccccc12	53	104	112	-1.8	i	1.1	0
C/C(Cn1nnc([N+](=O)[O-])n1)=N\NC(=O)c1ccccc1O	x	x	100	x	i	1.1	x
Cc1ccc(S(=O)(=O)N(CC(=O)N/N=C/c2cccc3c2OCCO3)c2ccccc2F)cc1	20	78	92	-0.5	i	1	3
Cn1c2ccccc2c2cc(C(=O)O)ccc21	56	101	92	-4.0	i	0.98	7

Molecules above that have a carbonyl joined to an NH by a bond outside any ring, in the order listed:
SMILES	INS promoter inh	INS promoter inh cell count	RGS16-Gao	GALR2 ag	HSV augment	HSV augment primary fold	PKD1 kinase inh
O=C(NC1CCCCC1)C(c1ccco1)N(CCc1ccccc1)C(=O)C(F)(F)F (stereo unspecified)	66	128	102	-0.9	i	1.1	0
COc1ccc(CCNC(=O)C2CCCCC2C(=O)O)cc1OC (stereo unspecified)	46	102	102	-1.3	i	0.96	3
COc1cc(NC(=S)NC(=O)c2cccs2)ccc1NC(=O)C(C)C	x	x	102	x	i	0.96	6
C/C(Cn1nnc([N+](=O)[O-])n1)=N\NC(=O)c1ccccc1O	x	x	100	x	i	1.1	x
Cc1ccc(S(=O)(=O)N(CC(=O)N/N=C/c2cccc3c2OCCO3)c2ccccc2F)cc1	20	78	92	-0.5	i	1	3

Reprinted at random: 2 entries already listed
SMILES	INS promoter inh	INS promoter inh cell count	RGS16-Gao	GALR2 ag	HSV augment	HSV augment primary fold	PKD1 kinase inh
CCCCn1c(SCC(=O)N(C)C)nnc1-c1ccncc1	x	x	103	x	i	0.97	0
C/C(Cn1nnc([N+](=O)[O-])n1)=N\NC(=O)c1ccccc1O	x	x	100	x	i	1.1	x

Other records follow:
SMILES	INS promoter inh	INS promoter inh cell count	RGS16-Gao	GALR2 ag	HSV augment	HSV augment primary fold	PKD1 kinase inh
C[N+](C)(C)CC/C=C1/c2ccccc2CSc2ccccc21	33	102	95	-4.0	i	1	-5
c1ccc(-c2nnc(-c3ccco3)o2)cc1	x	x	96	0.9	i	1	-2
COc1ccc(Cn2c(=O)[nH]c3cc(C(=O)NCCCN4CCCC4=O)ccc3c2=O)cc1	x	x	97	-3.2	i	0.95	-3
COc1ccc(CNC(=O)C2CCN(S(=O)(=O)N3CCOCC3)CC2)cc1	x	x	101	-0.6	i	0.95	-7
CC1(C)CC(=O)c2cc(C(=O)NC3CCSC3=O)c(=O)n(-c3ccc(Cl)cc3)c2C1 (stereo unspecified)	-43	105	86	-1.1	i	1	13
COc1ccc(C(=O)Nc2ccc(N3CCN(C)CC3)cc2)cc1[N+](=O)[O-]	x	x	104	x	i	0.98	-6
C=CCn1c(=O)c2ccccc2n2c(SCc3csc(-c4ccccc4)n3)nnc12	x	x	104	0.0	x	x	4
Cc1cc(C)c2nc(N3CCC(C(=O)NCCCN4CC(C)CC(C)C4)CC3)sc2c1 (stereo unspecified)	-63	81	99	x	i	0.98	-3
CCn1c(C)[n+](CC)c2ccc(C(=O)N(C)c3ccccc3)cc21	x	x	52	x	i	1	-2
CC(=O)Nc1ccccc1NS(=O)(=O)c1ccc(Cl)cc1	24	81	107	-1.9	i	0.97	-4
COc1cccc2cc(C(=O)Nc3ccc(F)cc3)c(=Nc3ccc(C(=O)O)cc3)oc12	x	x	104	x	i	0.93	4
Cc1cc(NC(=O)c2ccccc2-c2ccccc2)ccc1Br	8	34	226*[activator]	-1.5	i	0.94	6
Cc1cccc2[nH]c(CN(C)C(=O)CC3C(=O)NCCN3CC(C)(C)C)nc12 (stereo unspecified)	x	x	105	x	i	1.1	9
COc1cccc(-c2cc(C(F)(F)F)c3c(N)c(C#N)sc3n2)c1	-62	93	138	-1.0	x	x	-11
Cc1ccc(NC(=O)C2CCCN2S(=O)(=O)c2ccc3c(c2)CCC(=O)N3)cc1Cl (stereo unspecified)	x	x	101	-1.9	i	1	0
CC(=O)NC(CC(=O)Nc1cccc(S(=O)(=O)N2CCCCC2)c1)c1ccccc1 (stereo unspecified)	22	139	101	-2.4	i	0.92	-3
CC(=O)c1c(C)n(C)c2ccc(O)cc12	x	x	76	-1.9	i	0.88	0
CCCNC(=O)c1ccccc1NC(=O)c1ccccc1N(C)S(=O)(=O)c1ccccc1	x	x	102	-0.3	i	1	-12
COc1cccc(NC(=O)Nc2ccc3c(c2)N(C)C(=O)CS3)c1	-28	158	98	-3.1	i	0.78	-5
COc1ccc(OCCSc2nnc(-c3cccnc3)n2N)cc1	22	105	98	-1.9	i	0.78	0
CCCCC1=CC2=C(c3ccco3)C(=O)C(C)(OC(=O)c3ccc(OC)cc3)C(=O)C2=CN1CCCOC(C)C (stereo unspecified)	x	x	100	x	i	0.95	x
CCc1nnc(NC(=O)C2CCCO2)s1 (stereo unspecified)	-33	90	108	x	i	1	-9
COc1cccc(NS(=O)(=O)c2ccc3c(c2)CCCN3C(C)=O)c1	-23	89	104	-0.1	i	0.73	4
COc1cccc(/C=N/NC(=O)CC(=O)NCCc2ccc(OC)c(OC)c2)c1	-18	119	100	-0.9	i	0.93	8
O=C(CSc1ccccc1Cl)NC1CCCc2ccccc21 (stereo unspecified)	x	x	91	-2.0	i	0.9	5
CN(C(=O)CSc1nc(C2CC2)nc2ccccc12)c1nc(-c2ccccc2)cs1	5	100	101	-2.8	i	0.91	0
Cc1cc(NC(=O)CCC(=O)N(Cc2ccco2)C(C(=O)NC2CCCC2)c2ccccc2C)no1 (stereo unspecified)	-80	112	103	-2.0	i	0.87	4
COc1ccc(C(=O)NC(C)c2cc(OC)c(OC)cc2Br)cc1 (stereo unspecified)	x	x	105	-1.7	i	1	0
COc1cccc(/C=C/C(=O)OCC(=O)Nc2cc(S(=O)(=O)N3CCOCC3)ccc2C)c1	-45	112	134	x	i	0.96	2
CC1Nc2ccccc2C(=O)N1NS(C)(=O)=O (stereo unspecified)	x	x	96	x	i	1	-3
CCN1CCN(C(=O)CCc2nc3ccccc3n2-c2ccccc2)CC1	-22	90	108	-2.2	i	1	-19
Cc1[nH]nc2c1C(c1ccoc1)C(C#N)=C(N)O2 (stereo unspecified)	22	114	113	-1.1	i	0.85	-1
Cc1ccc(-c2nnn(CC(=O)Nc3ccccc3N3CCOCC3)n2)cc1	-30	107	106	-1.7	i	1.1	1
COc1cccc(/C=N/n2nnc3c(cnn3-c3ccccc3)c2=O)c1	14	59	103	-1.1	x	x	-5
N#CCC1c2ccccc2CCN1C(=O)Nc1cccc(Cl)c1 (stereo unspecified)	-22	132	109	-3.1	i	0.9	-8
CCN1C(=O)C2C(C1=O)N1C(c3cccs3)C3C(=O)N(CC)C(=O)C3N1C2c1cccs1 (stereo unspecified)	-26	128	103	-2.0	i	0.9	-13
CC(=O)c1ccc(NC(=O)CN2CCN(c3ncccn3)CC2)cc1	-16	172	106	-0.3	i	1.1	-5
Cn1c(N/N=C/c2cccs2)cc(=O)n(C)c1=O	-22	106	95	0.0	x	x	1
COCCN(Cc1ccccc1)C(=S)Nc1ccc(OC(F)F)cc1	7	129	84	-0.3	i	0.82	-2
CCOC(=O)N1CCC(NCCNC(=O)c2cccs2)CC1	-167	62	108	-2.0	i	1	-11
CCOC(=O)C1(CCCc2ccccc2)CCN(C(=O)c2ocnc2C)CC1	x	x	98	x	i	1	-5
COc1ccc(NC(=O)NCc2ccccc2F)cc1OC	-5	71	114	x	i	0.95	-3
CCOc1ccc(NC(=O)c2cc3ccccc3cc2O)cc1	x	x	98	x	i	0.8	x
COc1ccc([N+](=O)[O-])cc1NC(=O)c1ccc(N2C(=O)CCC2=O)cc1	x	x	102	x	i	0.93	x
COc1cccc(NC(=S)Nc2cc(C)cc(C)n2)c1	x	x	105	x	i	1.1	x
COc1ccc(-c2ccc(=O)n(Cc3cccc([N+](=O)[O-])c3)n2)cc1	x	x	103	x	i	0.97	0
O=C(CCCCCn1c(=S)[nH]c2ccc(N3CCOCC3)cc2c1=O)NCc1ccc(Cl)cc1	x	x	100	x	i	0.93	-5
c1cnc2c(Oc3ncnc4sccc34)cccc2c1	x	x	99	x	i	0.97	-7

Grouped by structure: the entries above containing a CF3 group.
SMILES	INS promoter inh	INS promoter inh cell count	RGS16-Gao	GALR2 ag	HSV augment	HSV augment primary fold	PKD1 kinase inh
O=C(NC1CCCCC1)C(c1ccco1)N(CCc1ccccc1)C(=O)C(F)(F)F (stereo unspecified)	66	128	102	-0.9	i	1.1	0
COc1cccc(-c2cc(C(F)(F)F)c3c(N)c(C#N)sc3n2)c1	-62	93	138	-1.0	x	x	-11

(listing goes on)
SMILES	INS promoter inh	INS promoter inh cell count	RGS16-Gao	GALR2 ag	HSV augment	HSV augment primary fold	PKD1 kinase inh
Cc1cc(-c2nc(C)c(-c3nnc(SCC(=O)Nc4cc(Cl)cc(Cl)c4)n3C)s2)no1	x	x	99	x	i	0.76	x
Cc1cc(C(=O)NCCc2ccc(Cl)cc2)no1	5	147	110	x	i	1.1	-3
C[C@H](NC(=O)c1ccco1)C(=O)Nc1ccc2c(c1)OCO2	-29	75	98	x	i	1.1	2
O=C1CN(C(=O)COC(=O)CNS(=O)(=O)/C=C/c2ccccc2)c2ccccc2N1	x	x	109	x	i	1.1	-3
Cc1c(Br)c(=O)oc2c(C)c(O)ccc12	-24	145	109	-0.1	i	0.88	4
CCn1c(SCC(=O)Nc2cccc(C(C)=O)c2)nnc1C(C)C	7	32	100	-2.9	i	1.1	-12
CCOC(=O)c1c(NC(=O)CSc2nnc(-c3cccnc3)o2)sc2c1CCC2	-221	70	97	-3.9	i	0.91	-7
CCOc1ccc(NC2OC(C)C(O)C(O)C2O)c([N+](=O)[O-])c1 (stereo unspecified)	9	120	105	x	i	1	0
C/C(=N\NC(=O)c1ccncc1)c1ccc(N(C)C)cc1	x	x	105	x	i	0.91	0
O=C(NCCN1CCN(c2ccccc2)CC1)C1(S(=O)(=O)c2ccc(Cl)cc2)CC1	x	x	93	-2.0	i	1.1	-9
O=C1NC(=Nc2ccccc2)c2ccc([N+](=O)[O-])cc21	48	166	88	-1.2	i	1	-10
CCc1ccc2c(c1)C(C)=CC(C)(C)N2	-83	58	100	-3.6	i	1.1	-7
CCC(=O)Nc1cccc(NC(=S)NC(=O)c2cc3ccccc3o2)c1	57	100	101	x	i	0.85	6
CCCn1c(O)c(CN2CCCC(C)C2)c(C)c(C#N)c1=O (stereo unspecified)	21	105	98	-1.7	i	1	-11
NN1C(=O)NC(c2ccccc2)(c2ccccc2)C1=O	45	126	101	x	i	1	3
Cc1sc(-c2ccncc2)nc1OC(=O)c1ccccc1	-4	64	100	-2.2	i	0.9	2
COc1ccc(C2C3=C(CCCC3=O)Nc3nc(SCc4ccc(C(=O)O)cc4)nn32)cc1OC (stereo unspecified)	x	x	105	-1.4	i	0.94	-8
O=C(Nc1nnc(-c2ccco2)s1)c1ccccc1	x	x	88	0.0	i	1.2	-15
CC1(C)CC(OC(=O)c2ccco2)CC(C)(C)N1O	x	x	101	-0.5	i	1.1	-13
CC(=O)CCC1C2C(O)C(C(C)C)C(OC(=O)/C=C/c3ccccc3)CC12C (stereo unspecified)	x	x	117	x	i	0.99	x
Cc1cccc(NC(=O)c2ccccc2NC(=O)Cc2ccccc2)c1C	x	x	102	-5.5	i	0.77	0
CCOC(=O)CN1CC23C=CC(O2)C(C(=O)NCc2cccs2)C3C1=O (stereo unspecified)	-11	101	97	0.0	i	1	7
O=C(Cc1cccc(Cl)c1)Nc1ccc(Br)cc1	x	x	139	x	i	0.94	-5
Cc1ccc(C(=O)N2CCN(C(=O)c3ccccc3)C2c2ccc(N(C)C)cc2)cc1 (stereo unspecified)	-17	99	113	-0.5	i	0.92	3
CCN(CC)CCNc1cc(C)nc2c1C(=O)C(=O)C=C2N1CCCCC1	8	76	97	x	i	0.62	-2
O=C(c1ccccc1)N1CCN(CC#CC2(O)CCCCC2)CC1	-12	142	123	-1.8	i	0.87	12
S=c1[nH]c(-c2ccccc2)cn1/N=C/c1cccc2ccccc12	-55	102	95	x	i	1	7
